Source: PubChem (National Center for Advancing Translational Sciences (NCATS))
Marburg entry inh – inhibitors of Marburg virus binding or cell entry; AID 540276; hit rate 1.8% among 300,000; Potency, µM (top dose mostly 37.8 µM), for inactives: at the highest dose activity change, negative = inhibition, actives largely listed as inhibitors; Marburg virus pseudotyped entry inhibition, cell reporter; control for the full effect not named in the record; about a third of the inactives were read at about 46 µM; active = well fitted inhibition curve with a large enough effect; inconclusive = small, poorly fitted or top-dose-only effect, or effect the other way; inactive = flat fitted curve, though single readings scatter; tested in HEK293 cells; about a fifth of its hits are not listed in these tables; note: % is set by controls: 0 for no effect and ±100 for the full control effect; luciferase read-out
NS1 function inh – inhibitors of influenza NS1 protein function; S. cerevisiae slowed by influenza A NS1, growth recovery by OD600; Potency, µM (doses to about 46.1 µM), inactives show top-dose activity, positive = more growth; hit rate 0.4% among 270,000; active means well fitted rising curve with a large enough effect; inconclusive means small, poorly fitted or top-dose-only effect; inactive means no such curve, though single readings can be large or run the other way; note: nearly all actives have a fitted effect of over 50% in size
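Recovery from NS1-induced slow growth read by OD600 in budding yeast switched to galactose assay medium (pH 6.0, -URA) at 1:100 dilution. Compound 23 nl per well; the matching strain lacking NS1 serves as control.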
Cruzain noTriton – inhibitors of Trypanosoma cruzi cruzain without detergent; Potency, µM, inactives show max response, negative = inhibition, actives largely listed as inhibitors; hit rate 2.3% among 200,000; purified cruzain, Z-FR-AMC fluorescence, no detergent; P25779;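 note: plate controls were enzyme without inhibitor for no effect and buffer without enzyme for full effect; nearly all actives have a fitted effect of over 40% in size; top concentration of the series not given in the record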
Target sequence (P25779 123-467 limits assumed): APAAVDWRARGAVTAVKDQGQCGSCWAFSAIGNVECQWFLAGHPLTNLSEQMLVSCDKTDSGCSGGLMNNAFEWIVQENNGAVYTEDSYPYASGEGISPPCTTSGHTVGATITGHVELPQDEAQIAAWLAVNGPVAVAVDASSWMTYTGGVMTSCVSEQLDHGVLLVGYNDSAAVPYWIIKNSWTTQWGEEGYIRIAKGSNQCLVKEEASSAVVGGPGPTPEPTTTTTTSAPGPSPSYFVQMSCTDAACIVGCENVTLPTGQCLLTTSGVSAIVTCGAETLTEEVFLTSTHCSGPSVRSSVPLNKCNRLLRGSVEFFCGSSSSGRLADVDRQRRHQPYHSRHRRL
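Detergent-free condition (0.00005% Triton X-100) in acetate buffer pH 5.5 with DTT. 1.5 nM enzyme and compound were pre-mixed 15 min, then 2 uM Z-FR-AMC substrate added; reaction progress from fluorescence change between first and third reads (60 s).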
Lassa entry inh – blocks Lassa virus binding to or entry into cells; hit rate 1.2% among 300,000; Lassa virus pseudotype entry inhibition, cell reporter; control for the full effect not named in the record; Potency, µM (doses to about 37.9 µM), for the others: at the highest dose activity change, negative = inhibition, usual class: inhibitors; AID 540256; active means well fitted inhibition curve with a large enough effect; inconclusive means small, poorly fitted or top-dose-only effect, or effect the other way; inactive means flat fitted curve, though single readings scatter; tested in HEK293 cells; note: % is set by controls: 0 for no effect and ±100 for the full control effect; nearly all actives have a fitted effect of over 50% in size; luciferase read-out
StopGo reporter – FMDV 2A StopGo reporter, luciferase signal; human cells with a luciferase reporter of 2A StopGo recoding; control for the full effect not named in the record; Potency, µM (doses to about 57.9 µM), for inactives: at the highest dose signal change, negative = less light; hit rate 1.2% among 410,000; active = well fitted falling curve with a large enough effect; inconclusive = small, poorly fitted or top-dose-only effect; inactive = no such curve, though single readings can be large or run the other way; tested in HEK293T cells; note: % is set by controls: 0 for no effect and ±100 for the full control effect; nearly all actives have a fitted effect of over 45% in size; luciferase light after 4 h
Cruzain Triton – cruzain (T. cruzi) inhibition with detergent | P25779 | purified cruzain, Z-FR-AMC fluorescence, 0.01% Triton | Potency, µM, for the others: max response, negative = inhibition, most hits filed as inhibitors | hit rate 0.43% among 200,000 | AID 1478;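 note: plate controls were neutral wells for no effect and buffer without enzyme for full effect; nearly all actives have a fitted effect of over 40% in size; top concentration of the series not given in the record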
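Enzyme 1.5 nM, Z-FR-AMC 2 uM, NaOAc 100 mM pH 5.5, DTT 5 mM, Triton X-100 0.01%; 15 min RT compound preincubation; kinetic ex360/em450, 60 s delta.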
RE007 growth inh – less growth of the S. pombe RE007 Vpr strain; S. pombe RE007 Vpr strain, BacTiter-Glo ATP luminescence, 24 h; control for the full effect not named in the record; Potency, µM (highest dose often 92.2 µM), for inactives: top-dose activity change, negative = less growth; hit rate 0.21% among 360,000; AID 651644; active = well fitted falling curve with a large enough effect; inconclusive = small, poorly fitted or top-dose-only effect; inactive = no such curve, though single readings can be large or run the other way;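 note: % is set by controls: 0 for no effect and ±100 for the full control effect; nearly all actives have a fitted effect of over 50% in size; the assay follows cell death caused by Vpr and the record does not say whether a fall means rescue or toxicity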
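Fission yeast RE007 carrying one integrated HIV-1 vpr copy, seeded at OD 0.01 in PMG+AL medium with 23 nL pinned compound. Grown 24 h at 30 degrees; viability read by BacTiter-Glo luminescence after 5 min.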
SARS PLpro yeast – blocks SARS-CoV papain-like protease in a yeast assay | S. cerevisiae expressing SARS-CoV PLpro, growth rescue; control for the full effect not named in the record | hit rate 0.19% among 330,000 | Potency, µM (top dose mostly 32.9 µM), without a hit: at the top dose activity, positive = growth rescue; active means well fitted rising curve with a large enough effect; inconclusive means small, poorly fitted or top-dose-only effect; inactive means no such curve, though single readings can be large or run the other way; note: 0% is about no effect; nearly all actives have a fitted effect of over 55% in size; growth read by luminescence after 48 h
* = called active by the depositor; ? = inconclusive; / = no result given; [ ] = dose if it differs, or a comment. Unless noted, calls come from the whole dose curve; as a rule, active = well fitted curve in the direction sought with a large enough effect; inconclusive = small, poorly fitted or top-dose-only effect, or another doubt; inactive = no such curve, though single readings can be large; an effect the other way counts as inactive or inconclusive. Potency is the fitted concentration of half-maximal effect.

SMILES	Marburg entry inh	NS1 function inh	Cruzain noTriton	Lassa entry inh	StopGo reporter	Cruzain Triton	RE007 growth inh	SARS PLpro yeast
CCCCCNC(=O)c1c[nH]c2ccc(S(=O)(=O)N3CCC(C)CC3)cc2c1=O	/	/	10%	-7%[46.1 µM]	0%	-1.1%	/	/
COc1ccccc1-n1c(CNc2c(C)cccc2C)nnc1SCC(=O)N1CCOCC1	-5%	-4%	?	-10%	-23%	1.8%	-7%	0%
COc1ccccc1-c1cc(C(F)(F)F)nc(N2CCCC2)n1	-2%	2%	-1%	-23%	2%	-14%	-18%	-16%
OC(CN1CCN(c2cccc(C(F)(F)F)c2)CC1)c1c[nH]c2ccccc12 (stereo unspecified)	-9%	16%	-26%	?	-22%	-15%	-24%	-1%
CCOC(=O)Cc1cc(=O)n2[nH]c(-c3ccccc3)c(-c3ccccc3)c2n1	-7%[46.1 µM]	10%	/	2%	-23%	/	20%	0%
CCN1C(=O)CC(N2CCC(Nc3ccc(F)cc3)CC2)C1=O (stereo unspecified)	?	1%	9%	1%	-8%	-0.1%	-21%	-20%
O=c1c(-c2nnc(SCc3ccc(Cl)c(Cl)c3)o2)cccn1Cc1ccccc1	?	29%	-2%	?	0%	-11%	18%	-8%
Cc1ccc2nc(-c3ccc(SCC(=O)Nc4nc(C)cs4)nc3)[nH]c2c1	?	10%	-9%	14%	29%	-14%	-7%	4%
COC(=O)Oc1ccc(/C=N/NC(=O)CN(c2ccccc2Cl)S(C)(=O)=O)cc1OC	-8%	4%	12%	-12%	?	-1.1%	-3%	0%
Cc1ccc2cc(CN(Cc3ccco3)C(=O)C3CCCCC3)c(=O)[nH]c2c1C	1%	-7%	-5%	0%	0%	1.0%	-10%	-4%
Cc1c(CCO)sc[n+]1CC(=O)OCCC12CC3CC(CC(C3)C1)C2	?	-1%	0%	-1%	-10%	-1.1%	-16%	-4%
CCCCn1c(N)c(N(CCC(C)C)C(=O)c2ccc(COc3ccccc3)o2)c(=O)[nH]c1=O	-3%	/	/	-12%[46.1 µM]	-7%	/	-20%	5%
O=c1c2ccccc2nc(/C=C/c2cccc([N+](=O)[O-])c2)n1CCCO	-23%	/	/	?	-17%	/	-10%	/
Cc1cc(C)[n+](-c2ccc(C(C)C)cc2)c2[nH]c(=O)[nH]c(=O)c12	8%	8%	?	-5%	-14%	-18%	-3%	?
CC1Oc2ccccc2N(CC(=O)NC2CCCCC2)C1=O (stereo unspecified)	-2%[46.1 µM]	12%	/	27%	1%	/	0%	16%

2 entries picked at random from the list so far, as already listed:
SMILES	Marburg entry inh	NS1 function inh	Cruzain noTriton	Lassa entry inh	StopGo reporter	Cruzain Triton	RE007 growth inh	SARS PLpro yeast
O=c1c(-c2nnc(SCc3ccc(Cl)c(Cl)c3)o2)cccn1Cc1ccccc1	?	29%	-2%	?	0%	-11%	18%	-8%
Cc1cc(C)[n+](-c2ccc(C(C)C)cc2)c2[nH]c(=O)[nH]c(=O)c12	8%	8%	?	-5%	-14%	-18%	-3%	?

(cont.)
SMILES	Marburg entry inh	NS1 function inh	Cruzain noTriton	Lassa entry inh	StopGo reporter	Cruzain Triton	RE007 growth inh	SARS PLpro yeast
CCCOc1ccccc1/C=C1\SC(N2CCCCC2)=NC1=O	?	-3%	/	?	17%	/	15%	-9%
Cc1nc(NC(=O)COc2ccc(Cl)cc2)sc1C(=O)N(C)C	-4%	1%	-6%	3%	/	1.6%	/	9%
COc1ccc(-c2cn3nc(SCC(=O)Nc4cc(C)cc(C)c4)ccc3n2)cc1	/	/	-9%	20%[46.1 µM]	41%[activator]	2.0%	/	/
O=C(C1=C(O)C(=O)N(CCN2CCOCC2)C1c1cccc(O)c1)c1cc2ccccc2o1 (stereo unspecified)	-12%	0%	/	-18%	-8%	/	-13%	2%
COc1cc(C2c3cc4c(cc3OC(Nc3ccc(C(=O)O)cc3)C2C)OCO4)cc(OC)c1OC (stereo unspecified)	?	/	/	?	-18%	/	-29%	/
CCOc1ccc(OCC(=O)NCCS(=O)(=O)N2CCN(c3ccccc3F)CC2)cc1	/	/	-1%	-29%[46.1 µM]	-3%	-2.6%	/	/
COc1ccc(-n2nnnc2SCC(=O)Nc2ccc(OC)cc2OC)cc1	/	-7%	/	/	-4%	/	3%	1%
Cc1cc(C)cc(N=C2NC(=O)CS2)c1	?	?	/	8%	-14%	/	6%	0%
Nc1nnc(SCCCC(=O)c2ccc(F)cc2)s1	4%	-5%	-11%	-10%	9%	-3.5%	11%	-23%
CCc1nnc(NC(=O)CN2C(=O)N(C)C3(CCCCC3)C2=O)s1	?	/	/	6%	-9%	/	-12%	-3%
CCC(=Cc1ccccc1O)c1ccncc1	-18%[46.1 µM]	/	/	-24%[46.1 µM]	-23%	/	-5%	/
COc1ccc(N2C(=O)CC(=O)NC2=O)cc1	4%	4%	-1%	8%	-24%	0.2%	13%	0%
CCOC(=O)c1sc(NC(=O)CSc2nnc(Cc3ccccc3)o2)c(C#N)c1C	28%	-65%	-13%	-16%	32µM*	0.4%	-30%	0%
CS(=O)(=O)N(CC(=O)N1CCN(c2ccccc2)CC1)Cc1ccc(Cl)cc1	-8%	-3%	?	-8%	-26%	-3.3%	3%	-1%
CC1CN(S(=O)(=O)c2ccc(C(=O)N(C)C3CCCCC3)cc2)CC(C)O1 (stereo unspecified)	-14%	/	/	-12%	-20%	/	3%	/
Cc1ccc(CN(Cc2ccco2)c2cnc(S(C)(=O)=O)nc2C(=O)Nc2ccccc2Br)o1	3%[46.1 µM]	/	?	7%[46.1 µM]	-26%	-2.3%	/	/
CCOC(=O)C1(Cc2ccccc2Cl)CCN(C(=O)CN2CCOC2=O)CC1	?	-4%	/	?	20%	/	-11%	-1%
Cc1ccc(C(=O)N/C(=C\c2ccco2)C(=O)NCC2CCCO2)cc1C (stereo unspecified)	0%	-2%	23%	-4%	-10%	-1.2%	-1%	2%
CCC(c1nnnn1C(C)(C)CC)N(CCCN1CCOCC1)Cc1cc2cccc(C)c2[nH]c1=O (stereo unspecified)	-1%	-2%	4%	10%	?	-0.5%	15%	7%
COc1ccc(NC(=O)C2CCCN(S(=O)(=O)c3cccnc3)C2)c(OC)c1 (stereo unspecified)	/	-3%	7%	/	-5%	1.5%	8%	-3%
O=C(O)c1cc(-c2ccco2)[nH]n1	-2%	-12%	-2%	-6%	4%	-3.9%	-4%	15%
COc1ccc(N2C(=O)CSC23C(=O)N(CC(=O)Nc2ccccc2F)c2ccccc23)cc1 (stereo unspecified)	/	/	-26%	-4%[46.1 µM]	?	0.4%	/	/
CCOc1ccc(C(=O)NCC(=O)N2CCC3CCCCC3C2)cc1OCC (stereo unspecified)	-5%[46.1 µM]	-15%	/	/	-10%	/	-15%	-4%
COc1ccc(OC)c(-n2c(=O)[nH]c3cc(C(=O)NCCc4ccc(OC)c(OC)c4)ccc3c2=O)c1	8%[46.1 µM]	/	?	3%[46.1 µM]	-16%	-1.6%	/	/
CC(NC(=O)Cn1cc(C(F)(F)F)cc(Cl)c1=O)c1ccccc1 (stereo unspecified)	12%[46.1 µM]	-8%	/	1%[46.1 µM]	-12%	/	-17%	0%
CCC(=O)N1CCN(c2ccccc2NC(=S)NC(=O)c2cccc([N+](=O)[O-])c2)CC1	?	/	/	0%	?	/	-3%	0%
Nc1c(-c2ccc(F)cc2)cnn1C1CCS(=O)(=O)C1 (stereo unspecified)	11%	8%	-2%	22%	-12%	1.5%	-11%	/
CN1CCN(CC(=O)Nc2cccc(S(=O)(=O)N(C)c3ccccc3)c2)CC1	25%	/	/	2%	-11%	/	-5%	-8%
COc1cccc(Cn2nnc3c(=O)[nH]c(C4CCN(C(=O)c5ccccc5Cl)CC4)nc32)c1	13%[46.1 µM]	/	26%	-18%[46.1 µM]	-30%	-7.2%	/	/
CCC1(C)Cc2c(sc3c2c(=O)n(C)c2nnc(SCc4ccc5c(c4)OCO5)n32)CO1 (stereo unspecified)	-17%	5%	-3%	-15%	2%	2.3%	-10%	-1%
CC1(C)OC(=O)N(CC(=O)Nc2ccccc2)C1(C)O (stereo unspecified)	14%	3%	/	1%	-18%	/	-5%	4%
O=C(CC1C(=O)NCCN1Cc1c(F)cccc1Cl)NC1CCCCCC1 (stereo unspecified)	/	-4%	/	/	-8%	/	16%	0%
O=C(COc1ccc(F)cc1)N(Cc1ccco1)C1CCS(=O)(=O)C1 (stereo unspecified)	/	12%	/	/	9%	/	-1%	2%
O=C(CCNC(=O)c1ccc([N+](=O)[O-])cc1)NCCC1=CCCCC1	0%[46.1 µM]	/	/	-22%	-17%	/	-1%	-4%
CCNc1nc(C)cc(COC)c1C#N	5%	0%	29%	3%	-4%	-4.2%	-11%	?
O=C(O)CCCC(=O)Nc1ccc(Oc2cccc(C(F)(F)F)c2)nc1	/	2%	/	/	-17%	/	1%	0%
COCCCNC(=O)CC1C[C@H](C(=O)N2CCCCC2)[C@@]2(CCc3ccccc3)c3[nH]c4ccc(OC)cc4c3CCN2C1=O (stereo partly specified)	1%	/	/	/	7%	/	-6%	20%
COc1ccc(Oc2ncc(CN3CCN(c4ccccc4)CC3)s2)cc1	4%	-10%	-1%	?	-19%	-1.4%	3%	4%
O=C(Nc1nc2c(c(=O)[nH]1)CCCC2)C1CC1	-2%	-1%	-6%	16%	9%	3.0%	11%	11%
CC1=C(C(=O)Nc2ccccc2C)C(c2ccncc2)n2nc(SCc3ccccc3Cl)nc2N1 (stereo unspecified)	-1%[46.1 µM]	/	26%	-3%[46.1 µM]	-15%	0.6%	/	/
CCC(N1CCOC1=O)S(=O)(=O)c1ccc(C)cc1 (stereo unspecified)	12%	4%	-1%	13%	-18%	-0.3%	-3%	1%
COc1ccc(OCC(=O)N2CCN(C(=O)c3ccc(OC)cc3)CC2)cc1	0%[46.1 µM]	/	-8%	?	3%	-1.4%	/	/
COc1ccc(N(CC(=O)NCCSC2CCCCC2)S(=O)(=O)c2ccccc2)cc1OC	-18%	8%	/	-21%	0%	/	-15%	5%
